High-throughput results (PubChem)
GIV Gai3 FP: GIV-Galpha-i interaction inhibition; Galpha-i3/FITC-GIV peptide fluorescence polarization, 90 min; active compounds read low; scaled: aluminum fluoride 0%, vehicle 100%; 210,000 tested, 0.42% active; P08753; percent of control (FP), % (test concentration not listed);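 active = replicate mean at 85% of control or lower, very high polarization wells dropped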;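 also: lower values mean more displacement of the GIV peptide from Galpha-i3; wells of about 15 µL received 100 nL stock; the first replicate is given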
Target sequence (P08753 whole entry, looked up): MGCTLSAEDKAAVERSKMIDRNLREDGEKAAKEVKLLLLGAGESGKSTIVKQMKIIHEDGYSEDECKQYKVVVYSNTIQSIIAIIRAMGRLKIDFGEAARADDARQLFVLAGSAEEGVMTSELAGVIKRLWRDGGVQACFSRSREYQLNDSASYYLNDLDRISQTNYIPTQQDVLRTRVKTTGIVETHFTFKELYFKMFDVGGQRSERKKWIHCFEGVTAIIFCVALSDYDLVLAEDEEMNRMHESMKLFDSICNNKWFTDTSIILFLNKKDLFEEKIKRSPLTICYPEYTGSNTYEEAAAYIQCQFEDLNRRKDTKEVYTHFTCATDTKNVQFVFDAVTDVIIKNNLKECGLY
HCMV UL50-53 inh: disrupts HCMV UL50-UL53 complex binding; HTRF UL50-UL53 interaction, normalized percent inhibition; inhibition, % (concentration not given with the values); 190,000 tested, 0.15% active;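 active = both replicates at 50% or more, plus weaker picks with an unusually low signal ratio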;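 also: stock transfer was 100 nL into about 20 µL; 0% = negative control wells and 100% = wells with untagged competitor protein; inactives centre near -12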
Sa growth inh: S. aureus growth inhibition; S. aureus RN4220 growth, OD600, 20 h, 42 °C; active compounds read low; relative growth, % (test concentration not listed); 170,000 tested, 0.53% active; AID 720641;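 active = growth at 42 °C up to 50% and 20 or more points under that at 30 °C, or under 10% at both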;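 also: 300 nL library stock went into each well; scaled to the means of positive and negative controls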
Sa growth inh second temp: further read-out of Sa growth inh, marked with its call; relative growth, %; measured here: growth at 30 °C;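 optical density after 20 h as mean of two plates; 100% = untreated growth and lower means inhibition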
* marks the source's active call; other numbers are inactive results; · = no result given; & = joins results of further samples.

Below each compound: GIV Gai3 FP, HCMV UL50-53 inh, Sa growth inh, Sa growth inh second temp
[1] COC(=O)c1ccccc1NC(=O)c1cccn(Cc2cccc(Cl)c2)c1=O
  105, ·, 98, 87
[2] Clc1ccc(NC2=NCCS2)cc1Cl
  ·, -25, 118, 84
[3] CCOC(=O)C1=C(N)Oc2cc(C)n(C)c(=O)c2C12C(=O)N(Cc1ccccc1)c1ccccc12 (stereo unspecified)
  96, -45, 87, 83
[4] CC(Cc1ccccc1)[n+]1cc(/N=C(/N)[O-])on1 (stereo unspecified)
  112, ·, 83, 84
[5] Cc1ccc(C(O)(c2ccc(C)c(C)c2)C2CN3CCC2CC3)cc1C (stereo unspecified)
  98, ·, 23*, 47*
[6] C=CCN1C(=O)NC(=O)/C(=C/c2ccc(OCc3ccc(Cl)cc3)cc2)C1=O
  103, 11, ·, ·
[7] Nc1ccncc1
  104, -39&0&7&-23, 92, 86
[8] N#Cc1c(/N=C/c2cc(Br)ccc2O)sc2c1C1CCN2CC1
  98, ·, 114, 97
[9] Cc1ccc2c(c1)C(Cc1nc3ccccc3c(=O)n1-c1ccc(Br)cc1)C(=O)N2 (stereo unspecified)
  101, -3, 107, 92
[10] Cc1ccccc1Cn1cccc(C(=O)Nc2cc(Cl)ccc2C#N)c1=O
  103, ·, 109, 81
[11] O=C1NC(=O)C(CCc2ccncc2)(CCc2ccncc2)C(=O)N1C1CCCCC1
  104, -13, 120, 88
[12] O=C1CCCN2C(=N1)SC(=S)N2CN1CC2CC(C1)c1cccc(=O)n1C2 (stereo unspecified)
  109, -6, 80, 85
[13] Cc1cc([P+](=O)O)c(C)n1-c1ccc(Br)cc1
  ·, -18, 81, 85
[14] Cc1ccc(C=C(C#N)C#N)c(C)c1
  100, -5, 67, 87
[15] CC(Cc1ccccc1)N1Cc2ccccc2C1 (stereo unspecified)
  108, 15, 112, 85
[16] c1ccc2c(C3=NCCO3)c[nH]c2c1
  101, -16, 100, 85
[17] CNC(C)(C)Cc1ccccc1
  ·, 15&6, 109, 109
[18] Oc1ccc2c3c1O[C@H]1c4oc5ccccc5c4C[C@@]4(O)C(C2)N(CC2CC2)CCC314 (stereo partly specified)
  97, -23, ·, ·
[19] COc1ccc2c(CN3CC=C(c4ccccc4)CC3)cc(=O)oc2c1
  ·, -27, 91, 58
[20] C=CCN1C(=O)/C(=C/c2ccco2)C(=O)NC1=S
  46*, -2, 92, 54

Look-ups from the list:
In HCMV UL50-53 inh, `O=C1CCCN2C(=N1)SC(=S)N2CN1CC2CC(C1)c1cccc(=O)n1C2` (stereo unspecified) shows -6
In Sa growth inh, `Cc1cc([P+](=O)O)c(C)n1-c1ccc(Br)cc1` shows 81

(more compounds)
Below each compound: GIV Gai3 FP, HCMV UL50-53 inh, Sa growth inh, Sa growth inh second temp
[21] c1ccc2c(c1)Nc1ccccc1S2
  102, -16&-10&-98, 77&91, 53&49
[22] CCOC(=O)C1SC2(C(F)F)CC1(O)c1c(c(OC)c3occc3c1OC)O2 (stereo unspecified)
  132, 0, 95, 89
[23] N#Cc1cccc(C(=O)O)c1
  ·, -36, 99, 85
[24] O=P1(N2CCOCC2)C=C(c2ccccc2)c2cc(Cl)ccc2O1 (stereo unspecified)
  ·, -11, 93, 96
[25] CC(C)Cc1nc2ccccc2c(=O)n1-c1ccccc1
  98, -16, 112, 94
[26] O=C(c1cn(Cc2nc(-c3cccs3)no2)c2ccccc12)C(F)(F)F
  105, -4, 97, 94
[27] O=C1NC(=O)N(Cc2ccccc2)C(=O)/C1=C/c1ccc2c(c1)OCO2
  100, 20, 111, 87
[28] CN1C(=O)C(C(=O)O)C2CC1Oc1ccccc12 (stereo unspecified)
  106, 22, 92, 73
[29] C1=C(c2cccnc2)Nc2ncnn2C1c1cccs1 (stereo unspecified)
  -74*, -73, 60, 60
[30] COC(=O)c1ccc2c(c1)nnn2C1CCN(Cc2ccccc2)CC1
  97, -9, 85, 83
[31] COc1ccc(-c2nc3ccccc3c(=O)o2)cc1
  104, -2, 111, 95
[32] CN(C)CCC(=O)c1ccccc1
  ·, -2, 66, 84
[33] COCc1cc(OC(=O)N(C)C)nc(-c2ccc(C)c(Cl)c2)n1
  99, -3, 102, 76
[34] Cc1ccc(-n2c(/C=C/c3cccs3)nc3ccccc3c2=O)cc1C
  111, ·, 110, 93
[35] Cc1cc(O)ccc1Cl
  ·, -15&-5, 94, 89
[36] Cc1o[nH]c(=O)c1CC(N)C(=O)O (stereo unspecified)
  102, -2&4&-18, ·, ·
[37] Cc1cc(C)nc(N2CCNCC2)n1
  100, -4, 82, 93
[38] Cc1ccc2c(=O)n(-c3cccc(Cl)c3)c(=O)[nH]c2c1
  106, -50, 84, 88
[39] S=C=NCc1ccco1
  ·, -4, 98, 92
[40] Cc1cccc(NC(=O)N2Cc3ccccc3-n3cccc3C2c2ccc(Cl)cc2)c1 (stereo unspecified)
  99, -29, ·, ·

(further entries)
Below each compound: GIV Gai3 FP, HCMV UL50-53 inh, Sa growth inh, Sa growth inh second temp
[41] CC(C)c1ccc(OCC(=O)N2CCN(CCc3ccncc3)CC2)cc1
  101, -3, 92, 95
[42] CC(C(=O)Nc1ccc2c(c1)OCCO2)N1CC=C(c2ccccc2)CC1 (stereo unspecified)
  ·, -21, 88, 89
[43] N#Cc1cc2c(nc1SCC(=O)Nc1ccc(Cl)c(C(F)(F)F)c1)C1CCN2CC1
  110, -24, 18, 9
[44] O=C(Nc1ccc(F)c([N+](=O)[O-])c1)c1cccn(Cc2ccccc2)c1=O
  106, ·, 108, 100
[45] CCCn1ncc(C(=O)O)c1C
  ·, -8, 110, 89
[46] O=c1c2ccccc2[nH]c(=S)n1-c1cccc(C(F)(F)F)c1
  101, 28, 99, 79
[47] CC(C)c1ccc(NC2=NC(C)(C)CS2)cc1
  105, 9, 105, 96
[48] Cc1[nH]c2ccccc2c1C1CCNCC1
  100, -14, 81, 86
[49] COc1ccc(N2CCN(C(CNC(=O)Oc3ccccc3)c3cccnc3)CC2)cc1 (stereo unspecified)
  105, ·, 89, 83
[50] CC(C)OC(=O)C1C(=O)NC23CCCCC2C1c1ccccc1O3 (stereo unspecified)
  100, ·, 90, 92
[51] CC(C)n1[nH]c(=O)c2c1NC(=O)CSC2c1ccc(Br)cc1 (stereo unspecified)
  103&100, 18, 98, 95
[52] C=CCOC(=O)C1=C(C)OC(N)=C(C(=O)OC(C)C)C12C(=O)Nc1ccccc12 (stereo unspecified)
  106, -11, ·, ·
[53] CCSC1=NN1c1cc(C)nc(N)n1
  100, -6, 90, 81
[54] Cc1nnc(NC(=O)c2cccn(Cc3cccc([N+](=O)[O-])c3)c2=O)s1
  101, ·, 91, 92
[55] O=C(O)C1(c2ccc(Cl)cc2)CCC1
  ·, -16, 108, 93
[56] NS(=O)(=O)c1ccc(N=NN2CCCCCC2)cc1
  ·, -31, 95, 82
[57] O=C1CSC(c2ccc(Cl)cc2)c2c(-c3ccccc3)nn(-c3ccccc3)c2N1 (stereo unspecified)
  102, -16, ·, ·
[58] Cc1nc(COc2ccc(/C(N)=N/OC(=O)N(C)C)cc2)cs1
  104, -30, 93, 77
[59] COc1ccccc1OCC(=O)N1CCN(C(c2ccccc2)c2ccccc2)CC1
  99, 2, 66, 68
[60] COCCn1cc(C(=O)N2CCC3(CC2)OCCO3)c2c3ccccc3n(C)c2c1=O
  96, -36, 94, 76

Next section.
Below each compound: GIV Gai3 FP, HCMV UL50-53 inh, Sa growth inh, Sa growth inh second temp
[61] FC(F)(F)c1ccccc1C1NCc2ccccc2-n2cccc21 (stereo unspecified)
  ·, 2, 74, 70
[62] CCN1CCN(C(=O)Cc2cccc3ccccc23)CC1
  ·, 4, 113, 99
[63] CC1=C(C)C(=O)C(C)=C(C)C1=O
  104, -31, 58, 45
[64] Cc1ccc2c(c1)c(=O)c1c3n2CCN(CC#N)C3CC1 (stereo unspecified)
  ·, 5, 113, 89
[65] Cc1c(C(c2ccc(Cl)cc2Cl)c2c(O)c3ccccc3oc2=O)c(=O)n(-c2ccccc2)n1C (stereo unspecified)
  107, 4, 84, 69
[66] CC(C)C(C)(N)C#N (stereo unspecified)
  ·, -12, 87, 91
[67] CCCCn1c(C)c(C(=O)O)c2cc(OC)ccc21
  ·, -28, 103, 79
[68] Cc1ccc(CN(C(=O)NC2CCCC2)C2CCN(Cc3ccccc3)CC2)o1
  105, -31, 84, 80
[69] CCCOC(=O)COc1cc(C)cc2oc(=O)c3c(c12)CCCC3
  102, -3, 81, 90
[70] COc1cc(C(c2c(O)c3ccccc3oc2=O)c2c(C)n(C)n(-c3ccccc3)c2=O)ccc1OCC(=O)O (stereo unspecified)
  102, 11, 108, 106
[71] COc1ccc(CNCCC2(c3ccccc3)CCOC(C)(C)C2)cc1OC (stereo unspecified)
  ·, -6, 109, 86
[72] O=C(OCc1cc(=O)n2ccsc2n1)C(O)(c1ccccc1)c1ccccc1
  ·, -23, 84, 91
[73] Cc1ccc2scc(N3CCN(C)CC3)c(=O)c2c1
  108, ·, 104, 92
[74] COC(=O)c1sc2nc3c(cc2c1N)CN(C)CC3
  102, -99, ·, ·
[75] OC(c1cccc(Cl)c1)(c1cccc(Cl)c1)C1CN2CCC1CC2 (stereo unspecified)
  ·, -12, 84, 88
[76] Cc1ccc2sc(NC(=O)c3ccc(S(=O)(=O)N(CCCl)CCCl)cc3)nc2c1
  105, -12, ·, ·
[77] OC(CNCCC1=CCCCC1)c1ccccc1 (stereo unspecified)
  ·, 4, 91, 87
[78] Cc1cc(C)cc(-n2c(/C=C/c3cccc(F)c3)nc3ccccc3c2=O)c1
  102, ·, 102, 90
[79] CC(N)Cc1c[nH]c2cc3c(cc12)OCCO3 (stereo unspecified)
  105, -29, 107, 89
[80] OCc1cnc[nH]1
  99, -31, ·, ·

Given tab-delimited: part of the list above
cpd	compound	GIV Gai3 FP	HCMV UL50-53 inh	Sa growth inh	Sa growth inh second temp
66	CC(C)C(C)(N)C#N (stereo unspecified)	·	-12	87	91
76	Cc1ccc2sc(NC(=O)c3ccc(S(=O)(=O)N(CCCl)CCCl)cc3)nc2c1	105	-12	·	·
70	COc1cc(C(c2c(O)c3ccccc3oc2=O)c2c(C)n(C)n(-c3ccccc3)c2=O)ccc1OCC(=O)O (stereo unspecified)	102	11	108	106
73	Cc1ccc2scc(N3CCN(C)CC3)c(=O)c2c1	108	·	104	92
65	Cc1c(C(c2ccc(Cl)cc2Cl)c2c(O)c3ccccc3oc2=O)c(=O)n(-c2ccccc2)n1C (stereo unspecified)	107	4	84	69
62	CCN1CCN(C(=O)Cc2cccc3ccccc23)CC1	·	4	113	99
72	O=C(OCc1cc(=O)n2ccsc2n1)C(O)(c1ccccc1)c1ccccc1	·	-23	84	91

3 structures from above, ordered by number of heavy atoms, rising:
Below each compound: GIV Gai3 FP, HCMV UL50-53 inh, Sa growth inh, Sa growth inh second temp
[79] CC(N)Cc1c[nH]c2cc3c(cc12)OCCO3 (stereo unspecified)
  105, -29, 107, 89
[77] OC(CNCCC1=CCCCC1)c1ccccc1 (stereo unspecified)
  ·, 4, 91, 87
[74] COC(=O)c1sc2nc3c(cc2c1N)CN(C)CC3
  102, -99, ·, ·

Carrying on:
Below each compound: GIV Gai3 FP, HCMV UL50-53 inh, Sa growth inh, Sa growth inh second temp
[81] COc1ccccc1-n1c(/C=C/c2ccccc2)nc2ccccc2c1=O
  103, ·, 102, 93
[82] CC(=O)Nc1ccc(-c2ccccc2)cc1
  100, -8, 104, 98
[83] CCOC(=O)Cc1ccc(NC(=O)N2Cc3ccccc3-n3cccc3C2c2cccc(C)c2)cc1 (stereo unspecified)
  106, -4, ·, ·
[84] O=C(Nc1ccccc1)N1CCC2(CC1)OCCO2
  105, ·, 89, 91
[85] CC[N+](CC)=c1ccc2ccc(O)cc2o1
  63*, -31&-51, 96, 88
[86] NNc1ccccn1
  ·, -22, 114, 70
[87] Cc1ccc(NC(=O)N(Cc2ccc3c(c2)OCO3)C2CCN(Cc3ccccc3)CC2)cc1F
  102, ·, 118, 81
[88] c1ccc2oc(C3CCNCC3)nc2c1
  ·, 0, 100, 96
[89] Cn1ccc(P(=O)(N2CCOCC2)N2CCOCC2)c1
  ·, 0, 97, 97
[90] Cc1ccccc1CN1CCN(C(C)C)CC1
  102, ·, 112, 113
[91] O=c1[nH]c(CN2CCNCC2)nc2ccccc12
  101, -13, 87, 79
[92] CN(C)C(=O)Oc1cc(-c2ccccc2)nc(C2CC2)n1
  100, -7, 108, 87
[93] CCC(=O)OC1(Cc2ccc(CC)cc2)CC(C)N(C)CC1C (stereo unspecified)
  ·, -16, 104, 90
[94] COc1ccc2c(C(O)CN3CCC(C)CC3)c[nH]c2c1 (stereo unspecified)
  107, -5, ·, ·
[95] CN1CCc2c(C#N)c(N)n(N)c(=S)c2C1
  -103*, -67, 97, 74
[96] CCc1ccc(C2NCc3ccccc3-n3cccc32)cc1 (stereo unspecified)
  ·, -5, 72, 73
[97] Cc1cc(-n2c(/C=C/c3ccc(Br)s3)nc3ccccc3c2=O)ccc1Br
  109, ·, 109, 90

Not all compounds are listed, so the mix of outcomes need not match the whole.
